# Compound activity: PubChem, several laboratories
# Beta apoptosis – blocks beta cell apoptosis; 300,000 tested, 0.8% active; protection from apoptosis, % (test concentration not listed); INS-1E cytokine-induced death, ATP luminescence, 48 h; percent of positive-control rescue, neutral wells zero;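 active = all replicates at 75% or more, or half of them and the mean; inconclusive = half reach 75% but not the mean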;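 note: 0% = cytokine-treated negative control wells and 100% = positive control rescue; higher means more ATP so stronger rescue from cytokine killing; wells of about 40 µL received 100 nL stock; the first replicate is given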
# RanGTP-Imp inh – disruptors of Ran-importin-beta complex formation – biochemical, FRET, CFP-Ran, YFP-importin-beta, homogeneous, primary screen; inhibition, % (test concentration not listed); 300,000 tested, 1.1% active; cell-free CFP-Ran/YFP-importin-beta FRET ratio;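 active = most replicates above 15%; inconclusive = exactly half above 15%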;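 note: 0% = DMSO wells and 100% = Ran loaded with GDP instead of GTP; wells of about 40 µL received 100 nL stock; the first replicate is given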
# rRNA inh HTS – selective bacterial rRNA inhibition in E. coli | GFP signal change (wild-type ribosome), % (test concentration not listed) | E. coli WT GFP vs humanized-ribosome RFP mutants, fluorescence, 24 h; stronger effect = lower value; DMSO median 0, no signal -100 | 350,000 tested, 1.6% active;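 active = significant combined selectivity score with lowered wild-type GFP, culture density cut under 30%, mutant RFP and density less affected; inactive = any of these conditions unmet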; note: one replicate is shown; some compounds called inactive have numbers as strong as hits
# T cruzi inh – blocks replication of Trypanosoma cruzi. T. cruzi beta-gal in NIH3T3, luminescence, 90 h. 300,000 tested, 1.4% active. AID 1885. inhibition, % (concentration not given with the values);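 active = mean inhibition across valid replicates above about 55%, limit read from the data; inconclusive = mean below that limit but half or more replicates reach it; inactive = mean below it, under half of replicates reach it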;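 note: signal also drops with host cell toxicity which is not excluded here; 0% = plate median of DMSO wells and 100% = zero luminescence signal; higher percent means less beta-gal luminescence so fewer parasites; stock transfer was 50 nL into about 50 µL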
# Vif A3G – HIV-1 Vif–A3G interaction blockers – biochemical, TR-FRET, GST-Vif 1-94, biotin-A3G peptide, dose response retest, primary screen (AID 1117319). TR-FRET GST-Vif / biotin-A3G peptide binding; higher % means a stronger effect; test concentration not given here; strong numbers were not always called active. inhibition, %, or IC50 in µM where a hit was titrated. 260,000 tested, 0.57% active;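 active = above the screen mean plus three standard deviations and confirmed in dose response; inconclusive = results disagree or hit not tested in dose response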;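 note: Vif residues 1-94 fused to GST binding biotinylated APOBEC3G peptide 110-148; 0% = full assay without inhibitor and 100% = GST in place of GST-Vif; retest series ran down from 100 µM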
# MLL AF4-AF9 inh – blocks AF4 peptide binding to human AF9 | inhibition, % at 10 µM | P42568 | 350,000 tested, 0.47% active | AlphaScreen, biotin-AF4 peptide binding to FLAG-AF9;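 active = every replicate reaching a set inhibition limit, whatever the replicate mean, cut at about 25% in these data; inconclusive = mean inhibition reaches that limit but some replicates miss it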;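 note: 0% = plate neutral control median and 100% = total signal loss; the record names both 10 and 1 µM as test concentration; the first replicate is given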
# Target sequence (P42568 whole entry, looked up): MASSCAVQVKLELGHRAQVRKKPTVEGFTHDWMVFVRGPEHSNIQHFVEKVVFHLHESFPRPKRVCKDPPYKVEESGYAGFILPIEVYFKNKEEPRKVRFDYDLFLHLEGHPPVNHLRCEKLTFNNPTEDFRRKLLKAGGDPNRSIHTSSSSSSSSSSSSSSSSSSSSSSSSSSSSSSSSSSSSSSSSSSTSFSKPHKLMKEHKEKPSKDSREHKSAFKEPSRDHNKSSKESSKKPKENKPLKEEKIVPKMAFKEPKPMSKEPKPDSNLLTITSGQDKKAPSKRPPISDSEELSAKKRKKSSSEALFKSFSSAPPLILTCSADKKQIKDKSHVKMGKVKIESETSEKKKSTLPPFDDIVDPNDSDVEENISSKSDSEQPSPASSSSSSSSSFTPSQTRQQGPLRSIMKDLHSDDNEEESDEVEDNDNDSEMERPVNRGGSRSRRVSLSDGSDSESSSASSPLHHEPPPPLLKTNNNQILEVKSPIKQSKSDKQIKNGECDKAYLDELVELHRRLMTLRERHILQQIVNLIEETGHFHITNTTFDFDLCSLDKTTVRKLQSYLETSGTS
# Calb FLC – affects C. albicans growth with fluconazole. C. albicans CaCi-2 (fluconazole-resistant clinical isolate) + fluconazole, Alamar Blue growth, 48 h. growth inhibition, % (concentration not given with the values). 300,000 tested, 0.57% active;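 active = most replicates above 75%; inconclusive = exactly half above 75%; inactive = most below 75%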;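 note: all wells also contain fluconazole at 8 µg/ml as a sub-toxic cotreatment; 0% = median of DMSO wells and 100% = median of geldanamycin control wells; wells of about 8 µL received 7.5 nL stock; the first replicate is given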
# A1 inh – inhibitors of the anti-apoptotic protein A1, read as caspase activation; AID 2462; 330,000 tested, 0.066% active; caspase activation, % (test concentration not listed); MEF A1-2A-BIM cells, Caspase-Glo 3/7 luminescence, 3 h; percent of clofoctol response, vehicle zero;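 active = over half of replicate activation scores above 10%, or exactly half above 10 with the replicate mean above 10; inconclusive = replicate mean below 10 yet half the replicates above 10; inactive = over half of replicates below 10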;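 note: wells of about 30 µL received 50 nL stock; many hits fall short of the cut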
# rRNA inh HTS OD600 – further read-out of rRNA inh HTS, marked with its call; OD600 change, %; measured here: OD600 growth;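 optical density of the mix in the first replicate; 0 = DMSO median and -100 = no signal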
# rRNA inh HTS RFP – recorded beside rRNA inh HTS, whose call it bears; RFP signal change, %; measured here: RFP humanized mutant strains;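 first replicate; 0 = DMSO median and -100 = no signal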
# Active calls of the source: *; ? = inconclusive; . = no result given; & = joins results of further samples. Not all compounds are listed; count on the stated rates, not on these rows.
SMILES,Beta apoptosis,RanGTP-Imp inh,rRNA inh HTS,rRNA inh HTS OD600,rRNA inh HTS RFP,T cruzi inh,Vif A3G,MLL AF4-AF9 inh,Calb FLC,A1 inh
Cc1cc([N+](=O)[O-])nn1CC(=O)NCCCn1ccnc1,-4.5,-1.3,7.6,1.0,1.2,-5.2,.,-0.8,-11.7,-0.1
CCN(CC)c1ccc(/C=N/NC(=O)Cc2cccs2)c(O)c1,91.5*,-1.2,.,.,.,38.9,7.2%,.,0.3,-0.1
COc1cccc(NC(=O)c2cc([N+](=O)[O-])ccc2NCc2cccnc2)c1,-4.0,2.7,.,.,.,-7.0,7.6%,.,4.1,0.0
O=C(NS(=O)(=O)c1ccccc1)c1ccccc1O,-3.2,2.8,.,.,.,11.5,0.0%,.,-4.2,-0.7
COc1ccccc1C(=O)NNC(=O)c1ccccc1F,-0.5,?,16.8,17.2,2.1,-19.0,15.3%,-2.8,5.5,-4.4
O=C(CSc1ccccc1Cl)N1CCOCC1,-9.1,0.8,9.3,6.0,4.0,-7.4,-3.8%,-0.7,-1.6,0.1
CSc1ncccc1C(=O)OCC(=O)N(CC(C)C)C1CCS(=O)(=O)C1 (stereo unspecified),6.2,-1.4,.,.,.,-4.8,0.0%,.,-1.1,-1.6
Cn1cc(CCC(=O)NCc2ccc(Cl)cc2)c2ccccc21,-2.8,0.0,-11.9,-17.1,2.5,5.5,-6.7%,-0.2,11.6,0.3
CCCCNC(=O)Nc1c(C(=O)OCC)[nH]c2ccccc12,-0.5,-3.4,.,.,.,8.2,8.2%,.,-2.1,1.2
CCOC(=O)N1CCC(NC(=O)c2cc(S(=O)(=O)N(CC)CC)ccc2F)CC1,.,-4.3,.,.,.,-5.8,29.9%,.,1.9,-0.2
Cc1cc(NS(=O)(=O)c2ccc(NC(=O)c3cnc(Cl)c(Cl)c3)cc2)nc(C)n1,-5.3,.,2.4,5.9,-1.5,.,2.5%,-1.1,.,-0.1
CCOC(=O)C1=C(COC(=O)c2ccc([N+](=O)[O-])o2)NC(=O)NC1C (stereo unspecified),2.5,.,-11.8,4.3,-4.0,.,-2.0%,1.4,.,1.5
CCOc1cc(/C=C/c2cc(C(=O)O)c3ccccc3n2)ccc1O,-3.6,-0.2,.,.,.,5.3,.,.,-3.3,-0.1
Cc1ccc(SCn2nnc3ccccc3c2=O)c(C)c1,8.5,2.8,-42.6,-48.2,-17.4,-1.2,8.6%,-1.2,-2.7,0.0
O=C(CSc1ccccc1F)Nc1ccc2c(c1)OCO2,4.0,.,2.4,2.8,-2.9,.,-2.8%,4.6,.,-0.4
C=CCN(C(=O)CCC(=O)Nc1cc(C)on1)C(C(=O)NC1CCCC1)c1ccc(OC)cc1OC (stereo unspecified),-0.1,-3.3,-1.3,-0.1,2.0,2.8,.,-4.2,13.4,-0.5
CCOC(=O)c1c(SC)n(-c2ccccc2)c(=S)n(-c2ccccc2)c1=O,-0.7,2.1,12.1,24.0,1.0,12.8,-1.0%,-1.2,-3.0,2.0
CC(=O)Nc1ccc(NC(=O)Nc2ccc3c(c2)N(C)C(=O)CS3)cc1,-3.4,-3.8,-16.9,-4.9,-3.1,-17.3,1.0%,-1.3,11.3,-0.2
CCc1cc2c(=O)c(-c3nc4ccccc4n3C)c(C)oc2c(CN2CCOCC2)c1O,1.2,-1.2,-4.6,-2.2,-6.0,-4.4,-0.8%,-4.6,0.3,-0.8
O=C(NCc1cccnc1)C(=O)NCC1OCCCN1S(=O)(=O)c1ccc(F)cc1 (stereo unspecified),-0.9,3.7,5.5,4.3,-0.1,-6.9,.,-0.8,1.6,1.2
CCCNC(=O)c1ccc2snnc2c1,-4.1,1.2,.,.,.,-8.5,-3.0%,.,3.9,1.4
c1cncc(CNc2ncnc3sccc23)c1,-5.0,10.8,5.5,6.8,-0.7,-5.0,5.8%,0.4,37.8,0.8
O=C(Nn1cnnc1)c1cc([N+](=O)[O-])cc([N+](=O)[O-])c1,-7.2,2.8,.,.,.,-12.7,.,.,-6.1,-0.3
Cn1c(NCCO)nc2c1c(=O)n(Cc1cccc(Cl)c1)c(=O)n2C,2.4,8.9,-2.4,-5.1,1.3,-0.2,0.7%,3.1,5.1,0.4
O=C1/C(=C/c2ccc(O)cc2)SC(=S)N1CC1CCCO1 (stereo unspecified),-12.1,-9.9,-24.2*,1.4*,4.7*,8.7,4.8%,-21.5,20.1,-0.5
O=C(Nc1ccc2nc(-c3ccco3)c(-c3ccco3)nc2c1)NC1CC1,.,61.7*,.,.,.,9.6,0.3µM*,.,6.5,.
Cc1c(C)n(CCc2ccccc2)c2ncnc(NCCCO)c12,0.6,0.9,-9.5,-10.4,-2.1,-5.3,.,-5.3,7.4,-0.6
COc1ccc(CC(=O)NC(c2ccccc2)c2ccc(C)cc2)c(OC)c1 (stereo unspecified),.,2.5,2.6,13.1,1.5,15.7,-2.9%,?,11.6,1.8
O=C(CCCN1C(=O)C2C3C=CC(C3)C2C1=O)N1CCN(c2ccccc2)CC1 (stereo unspecified),0.1,-0.2,.,.,.,-11.1,-7.6%,.,-0.8,-0.6
COc1cc2c(cc1OC)C(C1C(=O)CC(C)(C)CC1=O)N(C(=O)CCl)CC2 (stereo unspecified),2.3,1.7,26.0,16.0,-0.6,-13.4,?,-1.6,-5.7,-0.3
Cc1cccc(OCCOCCN2CCNCC2)c1C,-17.6,0.1,.,.,.,52.9,-8.2%,.,-6.3,0.2
CCOC(=O)c1c(C)[nH]c(C2=NNC(=Nc3ccccc3)SC2)c1C,.,.,-3.0,-3.2,1.3,31.7,20.8%,3.5,.,.
Cc1ccc(NC(=S)N2CCN(S(=O)(=O)c3ccccc3)CC2)cc1,1.7,.,-0.2,-3.2,-0.1,.,.,-3.9,0.1,1.1
C=CCSC1=C(C#N)C(c2cccc(OC)c2)CC(=O)N1 (stereo unspecified),-2.2,3.6,.,.,.,8.5,4.4%,.,-4.9,0.7
NC(=O)c1ccc(NC(=O)CSc2nnc(C3CCCCC3)n2N)cc1,2.5,0.9,13.3,-0.1,-0.4,-14.0,-0.2%,-4.3,3.0,-0.5
COc1cc2c(cc1OC)C(C)N(S(=O)(=O)c1ccc(Cl)nc1)CC2 (stereo unspecified),2.1,2.4,0.7,3.8,-1.6,-0.5,.,1.5,6.7,0.6
OC1(c2cccs2)CN(c2ccccc2)C2=[N+]1CCCC2 (stereo unspecified),-8.4,6.0,-0.6,-12.1,-2.0,-28.7,4.5%,-1.2,5.8,0.2
CCn1cc(C(=O)NCCc2ccc(Cl)cc2)c(=O)c2ccc(C)nc21,.,-2.1,-17.1,-9.4,3.7,-6.8,4.4%,-2.1,21.3,.
CCn1cc(C(=O)NCc2ccc3c(c2)OCO3)c(=O)c2cc(F)c(N3CCN(C(=O)c4ccco4)CC3)cc21,27.4,-0.5,.,.,.,23.7,-2.8%&-2.0%,.,3.1,0.2
Cc1cc(C)c(NC(=O)COC(=O)c2ccc([N+](=O)[O-])s2)c(C)c1,-1.1,-3.2,.,.,.,14.5,.,.,-0.6,0.8
Cc1ccccc1N1CCN(CCCOc2ccc3c(C)cc(=O)oc3c2)CC1,6.3,1.8,.,.,.,60.0*,4.2%,.,38.8,1.0
O=C(Cc1ccc(F)cc1)NC1CCCC1,-1.8,-0.7,.,.,.,-10.7,2.9%,.,1.9,-0.2
CCN(C(=S)NC(=O)c1ccco1)c1cccc2ccccc12,-7.1,.,8.0,-2.9,10.8,.,.,-1.5,.,-0.8
COc1cccc(NC(=O)CN2C(=O)COc3ccc(S(=O)(=O)N4CCCCCC4)cc32)c1,-4.2,3.7,-35.4,-33.3,-7.2,9.3,-1.9%,-1.5,-21.0,1.8
O=C(COc1cccc(F)c1)NNC(=O)Cc1ccc(S(=O)(=O)N2CCOCC2)s1,0.0,.,11.9,-3.7,3.1,.,3.6%,-0.5,.,0.8
COc1ccc(OC)c(Nc2cc(C)nc3nc(C)nn23)c1,-1.9,3.0,-4.0,-7.2,-1.8,-6.8,1.9%,-2.2,-0.8,-0.2
N/C(=N\OC(=O)COc1ccc(Br)cc1Cl)c1cccnc1,-1.0,-5.4,.,.,.,3.2,-3.0%,-0.5,-8.7,-0.3
NC(=O)c1cc(-c2ccccc2)sc1NC(=O)CN1CCCCC1,-4.4,-3.0,.,.,.,36.1,.,8.8,-2.2,-0.5
COc1ccccc1C(=O)Nc1ccc(Br)c2cccnc12,.,4.1,-1.0,7.3,-2.5,-15.3,-3.1%,4.4,3.3,0.0
CC(C(=O)c1c[nH]c(C(=O)N=CN(C)C)c1)c1ncc(C(F)(F)F)cc1Cl (stereo unspecified),-9.6,1.2,8.0,0.0,2.9,1.7,?,0.0,-6.5,-0.2
# Continued.
SMILES,Beta apoptosis,RanGTP-Imp inh,rRNA inh HTS,rRNA inh HTS OD600,rRNA inh HTS RFP,T cruzi inh,Vif A3G,MLL AF4-AF9 inh,Calb FLC,A1 inh
Cc1ncc([N+](=O)[O-])n1CC(=O)Nc1ccc(F)c(F)c1,-3.8,2.2,5.0,4.7,5.8,-5.5,.,-3.7,.,-0.3
CCCNC(=O)NS(=O)(=O)c1ccc(Cl)cc1,-10.3,-4.5,16.6,11.9,0.2,-11.3,?,-2.0,.,0.8
COc1ccc(/C=C2\SC(=O)N(CCC(=O)N3CCCCC3)C2=O)cc1OC,-0.2,4.0,4.7,6.5,0.3,20.4,.,1.4,18.6,-0.1
COc1ccc(CCNC(=O)c2cccc(S(=O)(=O)N3CCc4ccccc4C3)c2)cc1,5.2,.,14.7,10.0,2.3,.,-8.7%,-0.4,.,-0.7
C[C@]12C(=O)N(c3cccc(Cl)c3)C(=O)N1[C@H]1c3ccccc3OC[C@@H]1[C@H]2c1ccccc1,9.2,6.5,.,.,.,23.2,.,.,4.3,-1.5
CCCn1c(SCC(=O)Nc2ccc3c(c2)OCO3)nc2c1c(=O)n(C)c(=O)n2C,-3.0,1.5,8.4,9.7,2.3,10.6,13.8%,.,-7.3,-0.5
CC(C)(C)NC(=O)NC(=O)COc1ccc(Br)cc1Br,3.9,3.4,.,.,.,19.1,.,-1.2,-11.0,-0.5
CC1CCCC(C)N1C(=O)COC(=O)c1cc(Br)ccc1Cl (stereo unspecified),0.6,4.1,-39.0,-46.2,-5.2,-9.8,6.7%,7.3,-19.6,-2.6
CCOc1ccc(Br)cc1C(=O)N/N=C/c1cccc(C)n1,-3.9,2.6,6.4,9.2,1.7,-6.9,0.3%,2.1,-2.8,1.0
COc1cccc(-c2nnn(CC(=O)NC3CCCC3)n2)c1OC,-1.4,0.8,.,.,.,-8.3,0.5%,.,-9.5,-0.8
CCOc1ccc(C(=O)OCC(=O)NCc2ccccc2)cc1OCC,-8.5,.,4.1,14.8,-4.7,.,.,-1.0,.,1.3
CSc1nc2ncc(C(=O)O)c(N)n2n1,-8.4,6.6,3.9,9.6,-0.3,-1.1,11.2%,-4.5,-1.8,-0.3
O=C(N/C(=C\c1cccs1)C(=O)N1CCCCCC1)c1ccccc1,-1.2,0.3,8.1,8.7,-0.8,8.1,-4.8%,-1.8,-20.6,-0.2
